Rce1 inhib: yeast Rce1p protease inhibitors, primary screen, biochemical, fluorescence, cell-free homogeneous | CAAX prenyl protease 2 (Saccharomyces cerevisiae (strain ATCC 204508 / S288c)), Q03530 | yeast membranes, quenched prenylated peptide cleavage fluorescence | calls only | hit rate 0.27% among 290,000 | AID 2563, 2010;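 active = fall in fluorescence gain of 50% or more versus controls, with final raw signal at or below 3038400; inconclusive = same 50% fall but final raw signal above 3038400; inactive = fall in fluorescence gain under 50%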;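 also: plate controls were neutral control wells for no effect and wells lacking membranes for full effect; tested at 10 µM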
UUG fidelity: modulators of yeast start codon fidelity, primary screen, whole organism, S. cerevisiae, single point, plate reader; S. cerevisiae UUG-firefly luciferase reporter, luminescence/redox ratio; hit rate 0.13% among 350,000; activity score, % at 18.7 µM; AID 602363, 2012;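 active = replicate mean at a twofold rise or more, about +100% in these data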;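 also: firefly luciferase made from a UUG start codon reports start codon fidelity; reporter light over untreated wells divided by growth signal over untreated wells; some hits fall short of that in this replicate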
eIF4H inh: human eIF4H binding inhibitors, primary screen, translation initiation inhibitor project, biochemical, uHTS, fluorescence polarization | Eukaryotic translation initiation factor 4H (Homo sapiens), Q15056 | eIF4H fluorescence polarization binding assay | inhibition, % at 35 µM | hit rate 0.94% among 290,000;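 active = 50% or more with normal probe brightness, or confirmed in later tests; inconclusive = above 50% with abnormal brightness, or retests that disagree; inactive = below 50% or failed in later tests; about a fifth of its hits are not listed in these tables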;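 also: calls also rest on retests at 20 µM and on dose response follow-up; 0% = protein and probe with vehicle and 100% = probe without protein; strong numbers were not always called active; many hits fall short of the cut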
MT1-MMP act inh: blockers of MT1-MMP proenzyme processing, primary screen, HT1080 RFP-PRO-GFP cells, GFP/RFP fluorescence; GFP/RFP ratio fluorescence, overnight; percent of plate control window, DMSO zero; Matrix metalloproteinase-14 (Homo sapiens), P50281; AID 651647, 2012; GFP/RFP ratio change, % at 20 µM; hit rate 0.061% among 360,000;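 active = GFP/RFP ratio change of at least 30% with cell ATP level not reduced by more than half and red fluorescence within 50% of control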; also: strong numbers were not always called active
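system = RFP-PRO-GFP reporter HT1080 cells | dosing = 20 µM single dose, 1% DMSO | timing = overnight cell settling, then overnight compound exposure, 37 °C, 5% CO2 | read-out basis = GFP/RFP fluorescence ratio | controls = DMSO and RFP-L50D-GFP cell wells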
Env fusion inh: inhibitors of HIV-1 Env-driven cell-cell fusion, primary screen, HeLa-JRFL effector, CEM21 target cells, luciferase | inhibition, % at 12.3 µM | hit rate 1.1% among 360,000;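 active = mean replicate inhibition score of at least 50 and every replicate individually at or above 50; inconclusive = only one of the two criteria met; inactive = mean below 50 and not all replicates reaching 50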;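 also: 0% = plate neutral controls and 100% = maraviroc near 300 nM; one replicate is shown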
CSC inhib: cancer stem cell viability inhibitors, primary screen, luminescence. cancer stem cell-like cells viability. inhibition, % at 7.5 µM. hit rate 1.1% among 300,000;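 active = mean at 75% or more and at least half the replicates too; inconclusive = mean and replicates disagree; tested in HMLE shEcad cells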;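 also: 0% = median of negative and 100% = median of positive control wells; the first replicate is given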
PABP FP inh: PABP poly(A) RNA binding inhibitors, primary screen, biochemical, fluorescence polarization, uHTS; Polyadenylate-binding protein 1 (Homo sapiens), P11940; inhibition, % at 35 µM; hit rate 1% among 290,000;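 active = 50% or more with normal probe brightness, or confirmed in later tests; inconclusive = above 50% with abnormal brightness, or retests that disagree; inactive = below 50% or failed in later tests; about a fifth of its hits are not listed in these tables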;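 also: calls also rest on retests at 20 µM and on dose response follow-up; controls were probe without protein and protein plus probe with vehicle; some compounds called inactive have numbers as strong as hits; many hits fall short of the cut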
Target sequence (P11940 whole entry, looked up): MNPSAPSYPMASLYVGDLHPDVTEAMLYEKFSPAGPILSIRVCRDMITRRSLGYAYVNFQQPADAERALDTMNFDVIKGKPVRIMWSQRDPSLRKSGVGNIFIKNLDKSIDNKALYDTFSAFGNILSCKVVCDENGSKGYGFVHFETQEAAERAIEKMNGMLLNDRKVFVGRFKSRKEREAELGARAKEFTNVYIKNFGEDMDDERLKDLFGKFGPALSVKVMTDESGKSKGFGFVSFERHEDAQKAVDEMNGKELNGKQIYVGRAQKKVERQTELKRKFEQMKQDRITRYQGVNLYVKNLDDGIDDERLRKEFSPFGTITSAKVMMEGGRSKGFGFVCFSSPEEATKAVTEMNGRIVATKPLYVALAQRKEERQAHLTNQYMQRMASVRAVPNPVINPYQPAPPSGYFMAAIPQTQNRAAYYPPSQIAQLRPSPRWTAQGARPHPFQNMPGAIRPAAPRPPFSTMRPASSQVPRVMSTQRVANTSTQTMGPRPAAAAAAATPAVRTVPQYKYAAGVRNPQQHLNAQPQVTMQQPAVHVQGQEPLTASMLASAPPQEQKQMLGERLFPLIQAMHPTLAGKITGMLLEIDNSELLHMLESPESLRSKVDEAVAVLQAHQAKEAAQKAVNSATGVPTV
MT1-MMP act inh RFP: recorded beside MT1-MMP act inh, whose call it bears; RFP signal change, %; measured here: RFP expression control read;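 0 = vehicle wells; hits needed this value within 50% of zero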
Active calls of the source: *; i = inactive; ? = inconclusive; . = not tested or not shown. An excerpt (hit frequency here may not be typical).

SMILES	Rce1 inhib	UUG fidelity	eIF4H inh	MT1-MMP act inh	MT1-MMP act inh RFP	Env fusion inh	CSC inhib	PABP FP inh
CCCC(=O)N(CCN1CCOCC1)c1nc2ccc(OCC)cc2s1	i	-21	.	-5	-6	16	-6	.
O=S(=O)(Cc1ccccc1)N1CCN(C/C=C/c2ccccc2)CC1	i	-2	1	0	-5	-14	.	-6
CCOc1ccc(S(=O)(=O)Nc2cccc(C(=O)N3CC(C)OC(C)C3)c2)cc1 (centres undefined)	i	3	.	2	-3	1	2	.
COc1ccc(-c2nc3cccc(C)n3c2NCC2CCCO2)cc1O (centres undefined)	i	-20	?	-1	-2	-25	-10	?
COc1ccc(S(=O)(=O)Nc2ccc3c(c2)C(=O)N([C@H](C)CO)C[C@H](C)[C@@H](CN(C)C(=O)Nc2ccccc2)O3)cc1	.	-6	.	.	.	13	-5	.
c1ccc(N2CCN(C3CCSC3)CC2)cc1 (centres undefined)	i	-27	-21	2	2	.	-2	-2
COCCSc1nnc(NC(=O)Cc2ccc(OC)cc2)s1	i	-9	0	-2	2	8	3	-1
O=C(CSc1nnc(NC(=O)c2ccco2)s1)Nc1ccccc1	i	-25	-4	1	4	10	-12	3
COC(C(=O)NNS(=O)(=O)c1ccccc1[N+](=O)[O-])c1ccccc1 (centres undefined)	i	-13	1	2	3	5	.	3
Cc1cccc(NC(=O)CSc2nc3[nH]ncc3c(=O)n2-c2ccccc2)c1	i	.	4	.	.	.	4	6
O=C(O)c1cc(-c2c[nH]c3ccccc23)nc2ccc3ccccc3c12	i	.	2	-1	5	1	-8	-10
O=C1/C(=C/c2ccncc2)SC(=S)N1C1CCCCC1	i	.	1	1	-3	.	-9	6
Cc1cccc(Nc2nc(N3CCOCC3)nc(N3CCOCC3)n2)c1	i	-26	-6	-7	-5	-6	23	-4
CCCC1(CCC)NC(=O)N(CC(=O)N2CCN(C(=O)c3ccco3)CC2)C1=O	i	-2	7	-6	2	9	-5	0
O=C(NCc1ccccc1C(F)(F)F)C1CC(c2cc(C(F)(F)F)cc(C(F)(F)F)c2)=NO1 (centres undefined)	i	-15	-6	2	1	13	1	3
Nc1nc(SCC(=O)NCC2CCCO2)n[nH]1 (centres undefined)	i	-19	-8	-1	0	.	-3	-2
CCOC(=O)c1[nH]c2ccc(OC)cc2c1NC(=O)c1ccc(OC)c(OC)c1	i	.	-1	6	1	-11	-20	-2
C=CCn1c(SCC(=O)c2ccc(O)c(O)c2)nnc1-c1cccc(OC)c1	.	-19	.	17	-5	2	20	.
Cc1c(NC(=O)COC(=O)/C=C/c2cccc(Br)c2)c(=O)n(-c2ccccc2)n1C	.	-12	.	0	3	.	5	.
O=C(CCC(=O)OCC(=O)c1ccc(Br)cc1)Nc1cccc2cccnc12	i	-8	-6	-3	0	-63	-14	-1
CC(=O)NC1=NN(C(C)=O)C(C)(CC(=O)OC(C)(C)C)S1 (centres undefined)	i	.	-4	0	5	-12	4	18
COC(=O)c1ccc(N2CCN(CCNC(=O)Nc3ccc(OC)cc3)CC2)cc1	.	-31	-1	10	-5	2	-8	-11
COc1ccc(/C=C(\CC(=O)O)c2nc3ccccc3s2)cc1O	i	-20	9	-3	-2	-10	-4	0
Nc1ncc([N+](=O)[O-])cc1Br	i	-14	5	-1	2	5	-1	13
CC(=O)c1ccc(OCC(O)CN2CCOCC2)cc1 (centres undefined)	i	-24	-1	2	3	.	13	-2
COCCOC(=O)c1c(NC(=O)CNCc2ccco2)sc(C(N)=O)c1C	i	-4	50	-3	4	1	-13	17
Cc1ccc2c(CC(=O)NC3=NCCS3)coc2c1	.	-21	8	1	3	.	-8	2
CC(=O)c1cn(CC(=O)NCc2cccnc2)c2ccccc12	i	-12	-6	-2	-2	25	5	10
Cc1ccc(S(=O)(=O)N2CCCCC2)cc1NC(=O)Cc1cccs1	.	-20	.	3	-1	3	-12	.
O=C(NCc1ccccn1)C(=O)N/N=C/c1ccccc1O	i	-13	7	1	3	12	13	1
CC(=O)N/C(=C\c1ccc(C)cc1)C(=O)O	i	.	-2	-1	5	-12	-15	-9
CCOC(=O)c1nn(-c2ccccc2)c(=O)cc1OCC(=O)Nc1ccccc1OCC	i	-1	.	0	-2	.	-12	.
O=C(Nc1ncccn1)c1ccc([N+](=O)[O-])o1	i	.	-6	-7	-1	-7	-7	1
CCn1ncc(C2=NOC(C(=O)Nc3cc(OC)c(Cl)cc3OC)C2)c1C (centres undefined)	i	-10	-1	0	-5	.	3	8
CCOC(=O)C1CCCN(C2CC(=O)N(c3ccc(C)cc3)C2=O)C1 (centres undefined)	i	-2	-11	1	3	.	.	4
COc1cc(NC(=O)c2cccs2)c(OC)cc1NC(=O)CCn1nnc2ccccc21	i	.	1	4	2	.	.	-2
Cc1cc(C)c(C)c(S(=O)(=O)N2CCN(C(=O)C3CCC3)CC2)c1C	i	.	.	1	-10	-10	5	.
Cc1ccc(-n2nc3c(c2NC(=O)/C=C\c2ccc4c(c2)OCO4)CSC3)cc1	i	-7	-1	-8	-3	-18	-11	21
COc1cc(-c2nc(-c3ccccn3)no2)cc(OC)c1OC	i	-30	0	15	4	.	4	-10
COc1ccc(NC(=O)c2sc(NC(=O)COc3ccccc3)nc2C)cc1	i	-1	-18	4	-6	.	14	1
COc1ccc2cc(C=O)n(C)c2c1	.	-9	.	-7	2	-55	-14	.
Cc1ccc(C(=O)O/N=C(\N)c2ccccn2)cc1C	.	-86	1	1	2	52	-1	17
COc1ccc(C(=O)C2CCCN(C(=O)/C=C/c3cnc[nH]3)C2)c(C)c1 (centres undefined)	i	-20	1	-2	4	.	11	9
C=CCn1c(SCC(=O)Nc2ccccc2OC)nc(O)c(CC)c1=O	i	-11	-2	-1	1	10	0	-6
COc1ccccc1C(=O)Nc1ccc(S(=O)(=O)Nc2cc(C)on2)cc1	.	-19	-3	0	1	.	.	4
S=C(NCC1CCCO1)Nc1cccc2ccccc12 (centres undefined)	i	-29	-1	8	0	11	-4	-7
CCn1c(CNC(=O)c2cccnc2)cc2ccccc21	i	-13	-9	-2	-5	-11	-19	-7
COC(=O)[C@H]1C[C@@H]1[C@H](NC(=O)[C@H]1C[C@@H]1[C@H](NC(=O)OCc1ccccc1)c1ccccc1)c1ccccc1	i	-13	3	-1	-5	-5	11	-2

The closing 4 entries of the part above lead into the next:
SMILES	Rce1 inhib	UUG fidelity	eIF4H inh	MT1-MMP act inh	MT1-MMP act inh RFP	Env fusion inh	CSC inhib	PABP FP inh
COc1ccccc1C(=O)Nc1ccc(S(=O)(=O)Nc2cc(C)on2)cc1	.	-19	-3	0	1	.	.	4
S=C(NCC1CCCO1)Nc1cccc2ccccc12 (centres undefined)	i	-29	-1	8	0	11	-4	-7
CCn1c(CNC(=O)c2cccnc2)cc2ccccc21	i	-13	-9	-2	-5	-11	-19	-7
COC(=O)[C@H]1C[C@@H]1[C@H](NC(=O)[C@H]1C[C@@H]1[C@H](NC(=O)OCc1ccccc1)c1ccccc1)c1ccccc1	i	-13	3	-1	-5	-5	11	-2
CCCC(CCC(=O)Nc1ccc(C(=O)OCC)cc1)C(=O)O (centres undefined)	i	-7	3	-3	3	.	-12	-6
CCCOc1cccc(C2C(C(=O)c3ccc(C)o3)=C(O)C(=O)N2c2nc(C)c(C(C)=O)s2)c1 (centres undefined)	i	-7	1	0	7	1	3	0
O=C(COC(=O)c1ccccc1)c1ccc(Br)cc1	i	-35	-13	-2	-1	.	-2	-12
O=C(O)c1ccccc1NC(=O)C1CCN(S(=O)(=O)c2cccc3nsnc23)CC1	i	-24	-12	-1	8	-4	-10	11
Cc1cccc(NC(=S)NNC(=O)COc2ccc(Cl)cc2Cl)c1	i	.	3	0	1	2	-1	0
COc1ccc(NC(=O)C2=C(C)Nc3nc(CCCO)nn3C2c2ccc(OC)c(OC)c2)cc1 (centres undefined)	i	.	2	3	4	-2	9	3
CCCCn1c(NC(=O)CC)c(C#N)c2nc3ccccc3nc21	i	-13	43	-4	-1	-10	-7	-9
CCCCC(=NCCc1c(C)[nH]c2ccccc12)C1=C(O)CC(c2ccccc2)CC1=O (centres undefined)	i	-13	-2	-19	-19	-19	67	-1
O=c1cc(CSc2nc3ccccc3[nH]2)c2ccccc2[nH]1	i	-18	-4	3	-1	.	.	-7
CCC(C)(C)n1nnnc1C(c1cc2cccc(C)c2[nH]c1=O)N1CCCC1 (centres undefined)	i	0	1	2	4	12	.	18
CCn1c(SCC(=O)N=Nc2c(O)[nH]c3ccccc23)nnc1-c1ccc(C(C)(C)C)cc1	i	.	1	.	.	.	-19	-2
O=C(CCCOc1ccc(Cl)cc1Cl)NCc1ccccn1	i	.	-8	1	2	-45	1	-2
CCOc1ccccc1NC(=O)C(c1ccccc1)N1CCN(CC(=O)N2CCCC2)CC1 (centres undefined)	.	-8	.	11	4	.	2	.
O=C(Cn1c(O)c(/C=C2\C=Nc3ccc(Br)cc32)sc1=O)N1CCCC1	i	-27	-8	3	-3	-41	19	-3
COc1ccccc1CCNC(=O)C(=O)Nc1cc2c3c(c1)C(C)C(=O)N3CCC2 (centres undefined)	i	.	.	-2	-1	-37	-3	.
Nc1cc(C(=O)OCC(=O)N2CCCC2)ccc1Cl	i	-4	-13	14	-1	.	2	-6
CC(OC(=O)c1ccc(Cl)nc1)C(=O)N1CCc2ccccc21 (centres undefined)	i	-1	.	-1	4	-8	9	.
C=COc1ccc(N2C(=O)c3ccccc3OC2C)cc1 (centres undefined)	i	-10	0	2	0	6	-10	1
CCN(CC)C(=O)CSc1nc(OC)cc(=O)[nH]1	i	.	2	-2	3	13	-1	-11
Cc1cc(C(F)F)n2nc(C(=O)Nc3ccc(S(=O)(=O)NC45CC6CC(CC(C6)C4)C5)cc3)nc2n1	.	2	-8	6	-6	21	-4	-12
CN(CC(=O)Nc1ccccc1Br)C(=O)c1ccccc1Sc1ccccc1C#N	.	7	.	-4	0	4	.	.
O=C(NC(=S)Nc1cccc(O)c1)c1ccco1	i	-30	9	-2	1	-24	-5	4
COc1ccc(NC(=O)CSc2nncs2)cc1S(N)(=O)=O	i	.	-12	1	3	-4	-23	4
COc1ccc(S(=O)(=O)NCCc2c[nH]c3ccc(Cl)cc23)cc1	i	-17	-12	1	0	6	11	-4
CCN(Cc1ccccc1)C(=O)c1ccc(N(C)S(=O)(=O)c2ccc(C)cc2)cc1	i	-5	.	5	-3	-15	1	.
COc1ccc(S(=O)(=O)N2CCN(Cc3cccc(F)c3)CC2)cc1	i	.	.	-1	1	0	-11	.
CC(C)NC(=O)CCCn1cc([N+](=O)[O-])cn1	i	-8	-9	1	4	-20	-3	-7
COc1ccc(S(=O)(=O)Oc2ccc3ccccc3c2)cc1	i	.	2	1	1	-18	44	-4
COC(=O)COc1nc(C)c2c(c1C#N)CC(C)(C)OC2	i	-14	-2	-2	-1	.	9	-6
COc1ccc(C2=NN(C(=O)CSc3nccn3C)C(c3ccco3)C2)cc1 (centres undefined)	.	-15	.	-3	-1	-10	-9	.
CC1=C(C(=O)OCc2ccccc2)C(c2ccc(C)cc2)NC(=O)N1 (centres undefined)	.	-9	.	-4	-5	10	.	.

Assay outcomes as filed in PubChem BioAssay.
